FGF22 binding: FGF22 (human) thermal shift binding. Q9HCT0. recombinant FGF22 thermal shift, SYPRO orange fluorescence; percent of sucrose octasulfate shift, DMSO zero. calls only at 9.99 µM. 340,000 compounds, 1.5% hits. AID 651658;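 active = melting point raised past a set limit in the mean and every replicate; inconclusive = no clear call; three in four hits are not shown here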
Target sequence (Q9HCT0 whole entry, looked up): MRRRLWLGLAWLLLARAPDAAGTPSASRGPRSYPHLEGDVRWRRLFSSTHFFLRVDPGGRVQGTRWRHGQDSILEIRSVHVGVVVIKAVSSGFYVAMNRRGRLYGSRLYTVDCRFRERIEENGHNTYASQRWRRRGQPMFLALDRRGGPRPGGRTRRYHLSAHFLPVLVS
Calls only; i = inactive; ? = inconclusive. Not all compounds are listed. The share of hits here may be higher or lower than overall.

SMILES	FGF22 binding
NC(=O)[C@@H]1[C@H]2C(=O)O[C@H](c3ccccc3)[C@H](c3ccccc3)N2[C@H](c2ccccc2OCCO)[C@@]12C(=O)Nc1ccccc12	i
C[C@H]1CN([C@@H](C)CO)S(=O)(=O)c2ccc(C#CC3CC3)cc2O[C@@H]1CN(C)C(=O)C1CC1	?
Cc1ccccc1-c1cnc2c(c1)C(=O)N([C@H](C)CO)C[C@@H](C)[C@@H](CN(C)C(=O)CN(C)C)O2	i
COc1ccccc1NC(=O)N[C@@H]1CC[C@H](CCn2cc(-c3cccnc3)nn2)O[C@H]1CO	i
C[C@@H]1CN([C@@H](C)CO)S(=O)(=O)c2ccc(-c3ccncc3)cc2O[C@@H]1CN(C)S(=O)(=O)c1ccccc1F	i
CCCNC(=O)N(C)C[C@@H]1Oc2ncc(-c3ccccc3F)cc2C(=O)N([C@H](C)CO)C[C@H]1C	i
CN(C)C(=O)C[C@H]1CC[C@H](NC(=O)c2ccc(F)cc2)[C@H](CO)O1	i
CCNC(=O)[C@H]1[C@H](CO)[C@H]2Cn3c(ccc(-c4cccc(OC)c4)c3=O)[C@H]2N1Cc1nccs1	i
COCC(=O)N(C)C[C@H]1Oc2cc(-c3cccnc3)ccc2S(=O)(=O)N([C@H](C)CO)C[C@H]1C	i
O=S(=O)(N[C@H]1CC[C@H](CCn2cc(-c3ccccn3)nn2)O[C@@H]1CO)c1cccc(F)c1	i
COc1ccccc1-c1ccc([C@@H]2[C@@H](CO)N3CCCCN(C(=O)c4cccnc4)C[C@H]23)cc1	i
COc1cccc(NC(=O)N[C@H]2CC[C@@H](CC(=O)NCc3ccncn3)O[C@@H]2CO)c1	i
COc1ccc(NC(=O)N(C)C[C@H]2Oc3c(NC(=O)c4cnccn4)cccc3C(=O)N([C@H](C)CO)C[C@H]2C)cc1	i
CC(C)C[C@H]1COc2cc(Br)ccc2S(=O)(=O)N1Cc1ccc(F)cc1F	i
Cc1noc(C)c1NC(=O)N(C)C[C@H]1Oc2c(NS(=O)(=O)c3ccc(F)cc3)cccc2C(=O)N([C@H](C)CO)C[C@@H]1C	i
CO[C@H]1CN(C)C(=O)c2cc(NC(=O)Nc3ccccc3Cl)ccc2OC[C@H](C)NC[C@H]1C	i
C[C@H](CO)N1C[C@H](C)[C@@H](CN(C)Cc2ccncc2)Oc2ccc(NC(=O)CCN3CCOCC3)cc2C1=O	i
CO[C@H](CN(C)C(=O)c1cnccn1)[C@@H](C)CN([C@H](C)CO)S(=O)(=O)c1ccc(Cl)cc1	i
C[C@@H]1CN([C@H](C)CO)C(=O)c2cccc(NS(=O)(=O)c3cccs3)c2O[C@@H]1CN(C)Cc1ccc(Oc2ccccc2)cc1	i
COc1ccc(CNC(=O)C[C@H]2C[C@@H]3c4cc(NS(=O)(=O)c5ccc(F)cc5)ccc4O[C@@H]3[C@@H](CO)O2)cc1	i
O=C(c1ccncc1)N1CCCCN2[C@H](C1)[C@@H](c1ccc(-c3ccccc3)cc1)[C@@H]2CO	i
Cc1ccc(S(=O)(=O)N(C)C[C@H]2Oc3ccc(NS(=O)(=O)c4cccs4)cc3C(=O)N([C@@H](C)CO)C[C@H]2C)cc1	i
Cc1ccccc1-c1ccc2c(c1)O[C@H](CN(C)Cc1ccncc1)[C@H](C)CN([C@H](C)CO)S2(=O)=O	i
C[C@H]1CN([C@@H](C)CO)C(=O)c2cc(C3=CCCC3)cnc2O[C@H]1CN(C)Cc1cccnc1	i
CCCC#Cc1ccc([C@H]2[C@@H](C#N)N(S(C)(=O)=O)[C@H]2CO)cc1	i
O=C(C[C@@H]1CC[C@@H]2[C@H](COC[C@H](O)CN2C(=O)c2ccncc2)O1)NCc1cccc(F)c1	i
CCC(=O)N1[C@H](C(=O)NCc2ccccc2F)[C@@H](CO)[C@@H]2Cn3c(cccc3=O)[C@@H]21	i
CCCC(=O)N1CCC2(CC1)CN(C(=O)CC1CC1)[C@H](CO)c1c2c2ccc(OC)cc2n1C	i
C[C@@H]1CN([C@H](C)CO)C(=O)c2cc(NC(=O)Nc3ccc(F)cc3)ccc2O[C@@H]1CN(C)Cc1ccc(Cl)c(Cl)c1	i
COc1ccc(NC(=O)N(C)C[C@@H]2Oc3ccc(NC(=O)Nc4ccccc4)cc3C(=O)N([C@@H](C)CO)C[C@@H]2C)cc1	i
CCCNC(=O)N1[C@H](CO)[C@@H]2c3ccccc3N(C(=O)c3cccnc3)C[C@@H]21	i
CNC(=O)C[C@@H]1CC[C@H]2[C@@H](COC[C@H](O)CN2Cc2ccc(C(F)(F)F)cc2)O1	i
CC(C)CC#Cc1ccc2c(c1)O[C@@H](CN(C)C(=O)c1ccncc1)[C@@H](C)CN([C@H](C)CO)S2(=O)=O	i
O=C(c1ccc2c(c1)OCO2)N1CCCCN2[C@H](CO)[C@H](c3ccc(-c4ccccc4)cc3)[C@@H]2C1	i
COC(=O)[C@]12C[C@H](CC(=O)N3CCN(C(=O)c4ccco4)CC3)C(=O)N(CCC3=CCCCC3)C1=C[C@H](C(C)(C)C)O[C@@H]2C	i
CCCNC(=O)N(C)C[C@H]1Oc2ncc(C#CC3CCCCC3)cc2C(=O)N([C@H](C)CO)C[C@@H]1C	i
COc1cccc(-c2ccc3c(c2)O[C@@H](CN(C)Cc2cccnc2)[C@H](C)CN([C@@H](C)CO)S3(=O)=O)c1	i
C[C@H](CO)N1C[C@H](C)[C@@H](CN(C)CC2CC2)OCCCC[C@H](C)Oc2ccc(NS(=O)(=O)c3ccc(F)cc3)cc2C1=O	i
C[C@@H]1CN([C@H](C)CO)C(=O)c2cc(-c3cncnc3)cnc2O[C@@H]1CN(C)Cc1cncnc1	i
C[C@H](CO)N1C[C@H](C)[C@H](CN(C)C(=O)C2CC2)Oc2cc(C3=CCCCC3)ccc2S1(=O)=O	i

In the list so far, these contain a thiophene ring, fused or not.
SMILES	FGF22 binding
C[C@@H]1CN([C@H](C)CO)C(=O)c2cccc(NS(=O)(=O)c3cccs3)c2O[C@@H]1CN(C)Cc1ccc(Oc2ccccc2)cc1	i
Cc1ccc(S(=O)(=O)N(C)C[C@H]2Oc3ccc(NS(=O)(=O)c4cccs4)cc3C(=O)N([C@@H](C)CO)C[C@H]2C)cc1	i

(continued)
SMILES	FGF22 binding
Cc1ccc(S(=O)(=O)Nc2ccc3c(c2)CC(=O)N([C@H](C)CO)C[C@@H](C)[C@H](CN(C)C(=O)Nc2ccc(F)cc2)O3)cc1	i
C[C@@H]1CCCCO[C@@H](CN(C)C(=O)Nc2ccccc2)[C@H](C)CN([C@H](C)CO)C(=O)c2cc(NS(=O)(=O)c3ccc(F)cc3)ccc2O1	i
Cc1ccc(F)cc1S(=O)(=O)N[C@H]1CCN(Cc2ccc(OC(C)C)cc2)C1	i
C[C@@H]1CN([C@@H](C)CO)C(=O)c2cc(-c3ccc(C#N)cc3)cnc2O[C@H]1CN(C)C(=O)CN(C)C	i
O=C(C[C@H]1CC[C@H]2[C@@H](COC[C@@H](O)CN2C(=O)c2cccnc2)O1)NC1Cc2ccccc2C1	i
C[C@H](CO)N1C[C@H](C)[C@H](CN(C)Cc2ccc(C(F)(F)F)cc2)Oc2ccc(NC(=O)Nc3ccccc3)cc2CC1=O	i
COCC(=O)N1CC2(C1)[C@H](c1ccccc1)[C@H](CO)N2C(=O)c1cccnc1	i
C[C@@H]1CN([C@H](C)CO)C(=O)c2cc(NS(=O)(=O)c3cccs3)ccc2O[C@@H](C)CCCCO[C@H]1CN(C)S(=O)(=O)c1ccc(F)cc1	i
O=C(Nc1cccc(F)c1)N1CCCCN2[C@H](CO)[C@@H](c3ccc(C#CC4CC4)cc3)[C@H]2C1	i
COc1ccc(NC(=O)Nc2ccc3c(c2)C(=O)N([C@@H](C)CO)C[C@@H](C)[C@H](CN(C)S(=O)(=O)c2cccs2)OCCCC[C@@H](C)O3)cc1	i
CO[C@@H]1CN(C)C(=O)c2cc(NS(=O)(=O)c3cccc(F)c3)ccc2OC[C@@H](C)NC[C@@H]1C	i
COc1ccccc1-c1cnc2c(c1)C(=O)N([C@H](C)CO)C[C@@H](C)[C@@H](CN(C)C(=O)c1ccncc1)O2	i
Cc1ccc(-c2cnc3c(c2)C(=O)N([C@H](C)CO)C[C@@H](C)[C@@H](CN(C)C(=O)c2ccccc2)O3)cc1	i
COC(=O)C[C@@H]1CC[C@@H]2[C@H](COC[C@H](O)CN2S(=O)(=O)c2ccc(F)cc2)O1	i
COCC(=O)Nc1ccc2c(c1)C(=O)N(C)C[C@@H](OC)[C@@H](C)CN(C(=O)c1cccnc1)[C@H](C)CO2	i
CC(C)NC(=O)N(C)C[C@H]1OCCCC[C@H](C)Oc2ccc(NC(=O)Nc3ccc(F)cc3)cc2C(=O)N([C@@H](C)CO)C[C@H]1C	i
C[C@@H]1CCCCO[C@@H](CN(C)S(=O)(=O)c2ccccc2)[C@@H](C)CN([C@H](C)CO)C(=O)c2cc(NC(=O)Nc3ccc(C(F)(F)F)cc3)ccc2O1	i
C[C@H](CO)N1C[C@H](C)[C@H](CN(C)C(=O)Nc2cccc3ccccc23)Oc2ccc(NC(=O)Nc3ccc(C(F)(F)F)cc3)cc2C1=O	i
C[C@H]1CN([C@@H](C)CO)C(=O)Cc2cc(NC(=O)C3CCCCC3)ccc2O[C@@H]1CN(C)CC1CCCCC1	i
COc1ccc(CNC(=O)C[C@@H]2C=C[C@@H](NC(=O)CN(C)C)[C@H](CO)O2)cc1	i
Cn1cnc(S(=O)(=O)N[C@@H]2CC[C@H](CC(=O)Nc3ccc(-c4ccccc4)cc3)O[C@@H]2CO)c1	i
C[C@@H]1CN([C@@H](C)CO)C(=O)c2cc(N(C)C)ccc2O[C@H]1CN(C)S(C)(=O)=O	i
CN(C)CC(=O)N[C@@H]1CC[C@H](CC(=O)NCc2ccc(Cl)cc2)O[C@@H]1CO	i
O=C(C[C@H]1CC[C@@H]2[C@H](COC[C@H](O)CN2C(=O)c2ccc3c(c2)OCO3)O1)NC1Cc2ccccc2C1	i
C[C@H]1CN([C@@H](C)CO)C(=O)c2cccc(NC(=O)c3cnccn3)c2O[C@H]1CN(C)C(=O)Nc1cccc2ccccc12	i
CCS(=O)(=O)N1CC2(CN(C(=O)c3ccc(F)cc3)[C@@H](CO)c3c2c2ccc(OC)cc2n3C)C1	i
O=C(Cc1ccncc1)NCC[C@H]1CC[C@H](NC(=O)Nc2ccc(Cl)cc2)[C@H](CO)O1	i
C[C@@H]1CN([C@@H](C)CO)C(=O)c2cc(-c3ccccc3)cnc2O[C@@H]1CN(C)Cc1cccnc1	i
CNC(=O)C1=C[C@H](c2ccc(C(=O)OC)cc2)C[C@H](OCCCCO)O1	i
Cc1cc(C(=O)Nc2cccc3c2O[C@H](CN(C)S(=O)(=O)c2cccs2)[C@@H](C)CN([C@@H](C)CO)C3=O)n(C)n1	i
O=C(O)C[C@@H]1C[C@H]2c3cc(NC(=O)CC4CC4)ccc3O[C@H]2[C@H](CO)O1	i
CO[C@@H]1CN(C)C(=O)c2cc(NC(=O)c3ccccc3)ccc2OC[C@H](C)NC[C@H]1C	i
O=C(Nc1ccccc1)Nc1ccc2c(c1)[C@@H]1C[C@H](CC(=O)N3CCOCC3)O[C@@H](CO)[C@@H]1O2	i
COc1ccc(NC(=O)N(C)C[C@H]2OCCCC[C@@H](C)Oc3ccc(NC(=O)Nc4ccc5c(c4)OCO5)cc3C(=O)N([C@H](C)CO)C[C@@H]2C)cc1	i
C[C@H](CO)N1C[C@H](C)[C@@H](CN(C)Cc2ccncc2)Oc2ccc(NS(=O)(=O)c3ccc(Cl)cc3)cc2CC1=O	i
COc1ccc(CN(C)C[C@H]2Oc3ccc(NC(=O)CCC(F)(F)F)cc3CC(=O)N([C@H](C)CO)C[C@H]2C)cc1	i
C[C@@H]1CCCCO[C@H](CN(C)C(=O)CCC(F)(F)F)[C@@H](C)CN([C@@H](C)CO)C(=O)c2cc(NS(=O)(=O)c3ccc(F)cc3)ccc2O1	i
C/C=C/c1cnc2c(c1)C(=O)N([C@H](C)CO)C[C@H](C)[C@@H](CN(C)Cc1ccc(F)cc1)O2	i
CS(=O)(=O)N1[C@H](C#N)[C@@H](c2ccc(/C=C/c3ccccc3)cc2)[C@H]1CO	i
C[C@H]1CN([C@@H](C)CO)C(=O)c2cc(NC(=O)CCCCCC(=O)Nc3ccccc3N)ccc2O[C@H]1CN(C)Cc1ccc2c(c1)OCO2	i

2 entries drawn at random from the list so far:
SMILES	FGF22 binding
CC(C)NC(=O)N(C)C[C@H]1OCCCC[C@H](C)Oc2ccc(NC(=O)Nc3ccc(F)cc3)cc2C(=O)N([C@@H](C)CO)C[C@H]1C	i
C[C@@H]1CN([C@@H](C)CO)C(=O)c2cc(-c3ccc(C#N)cc3)cnc2O[C@H]1CN(C)C(=O)CN(C)C	i

Exported with each value named: entries from further up
CO[C@@H]1CN(C)C(=O)c2cc(NC(=O)c3ccccc3)ccc2OC[C@H](C)NC[C@H]1C
  FGF22 binding = i

O=C(Nc1ccccc1)Nc1ccc2c(c1)[C@@H]1C[C@H](CC(=O)N3CCOCC3)O[C@@H](CO)[C@@H]1O2
  FGF22 binding = i

COc1ccc(NC(=O)N(C)C[C@H]2OCCCC[C@@H](C)Oc3ccc(NC(=O)Nc4ccc5c(c4)OCO5)cc3C(=O)N([C@H](C)CO)C[C@@H]2C)cc1
  FGF22 binding = i

C[C@H](CO)N1C[C@H](C)[C@@H](CN(C)Cc2ccncc2)Oc2ccc(NS(=O)(=O)c3ccc(Cl)cc3)cc2CC1=O
  FGF22 binding = i

Remaining list, next part
SMILES	FGF22 binding
C[C@H]1CN([C@@H](C)CO)C(=O)c2cc(NC(=O)CCN3CCOCC3)ccc2O[C@@H]1CN(C)S(=O)(=O)c1cn(C)cn1	i
COCC(=O)Nc1ccc2c(c1)OC[C@@H](C)N(CC1CC1)C[C@H](C)[C@@H](OC)CN(C)C2=O	i
CN1CCN(C(=O)C[C@H]2C[C@@H]3c4cc(NC(=O)Nc5ccc(C(F)(F)F)cc5)ccc4O[C@@H]3[C@@H](CO)O2)CC1	i
C[C@H](CO)N1C[C@H](C)[C@H](CN(C)Cc2ccc(C(=O)Nc3ccccc3N)cc2)Oc2ccc(NC(=O)C3CC3)cc2C1=O	i
